Vaccinia Venus: inhibitors of vaccinia virus (Venus reporter). Vaccinia virus Venus reporter expression, fluorescence. Potency, µM (titrated, usually from 36.5 µM), inactives show at the highest dose activity change, negative = inhibition, usual class: inhibitors. 0.46% of 330,000 active. AID 720580; active means well fitted inhibition curve with a large enough effect; inconclusive means small, poorly fitted or top-dose-only effect; inactive means no such curve, though single readings can be large or run the other way; tested in A549 cells; further: nearly all actives have a fitted effect of over 30% in size; inactives centre near -10
VACV mCherry inh: vaccinia inhibition (mCherry reporter); Vaccinia virus mCherry reporter infection, fluorescence; about a quarter of the inactives have no number; Potency, µM (series often up to 36.5 µM), inactives show at the highest dose activity change, negative = inhibition, hits mostly inhibitors; 0.63% of 310,000 active; AID 720579; active = well fitted inhibition curve with a large enough effect; inconclusive = small, poorly fitted or top-dose-only effect; inactive = no such curve, though single readings can be large or run the other way; tested in A549 cells; further: nearly all actives have a fitted effect of over 35% in size; inactives centre near -10
Active calls of the source: *; i = inactive; ? = inconclusive; . = not tested or not shown; & = joins results of further samples; [ ] = dose if it differs, or a comment. On the % scale 0 is the no-effect control and ±100 the full control effect; potency means the concentration at half of the fitted maximal effect.

SMILES	Vaccinia Venus	VACV mCherry inh
C=CCNc1ccc(F)c(F)c1N1CCCCCC1=O	-10%	.
O=C(NN1CCOCC1)NC12CC3CC(CC(C3)C1)C2	-18%	i
CSCC[C@H](NC(=O)NCCc1ccc(F)cc1)C(=O)O	-13%	.
Nc1nc2ccccc2cc1C(=O)NCCCCc1ccccc1	-23%	i
CCn1cc([N+](=O)[O-])c(C(=O)N2CCCc3ccccc32)n1	-3%	-2%
COc1cccc(NC(=O)C2C3C=CC4(O3)C2C(=O)N(CCCN2CCCC(C)C2)C4C(=O)NC2CCCCC2C)c1 (stereo not drawn)	-8%	-8%
CCCCNC(=O)C1C2C=CC(C2)C1C(=O)O (stereo not drawn)	-7%	-16%
CC(C)(C)c1csc(NC(=O)c2cccnc2Cl)n1	-9%	-14%
COc1ccccc1N1C(=O)C2C(C(=O)c3ccccc3)=NN(c3ccc(Br)cc3)C2C1=O (stereo not drawn)	3%	-19%
COc1ccccc1NC(=O)Cn1nc2c3cc(F)ccc3n(Cc3cccc(C)c3)cc-2c1=O	-6%	-11%
COc1ccc(-n2c(=O)c3ccccc3n(CC(=O)NC3CCCCC3)c2=O)c(OC)c1	-15%	-22%
COc1ccccc1CNC(=O)CN1CCC(NC(=O)c2ccccc2F)CC1	-14%	i

The closing 5 records of the part above open the next one.
SMILES	Vaccinia Venus	VACV mCherry inh
CC(C)(C)c1csc(NC(=O)c2cccnc2Cl)n1	-9%	-14%
COc1ccccc1N1C(=O)C2C(C(=O)c3ccccc3)=NN(c3ccc(Br)cc3)C2C1=O (stereo not drawn)	3%	-19%
COc1ccccc1NC(=O)Cn1nc2c3cc(F)ccc3n(Cc3cccc(C)c3)cc-2c1=O	-6%	-11%
COc1ccc(-n2c(=O)c3ccccc3n(CC(=O)NC3CCCCC3)c2=O)c(OC)c1	-15%	-22%
COc1ccccc1CNC(=O)CN1CCC(NC(=O)c2ccccc2F)CC1	-14%	i
COc1ccc(NC(=O)COC(=O)CCNS(=O)(=O)c2ccccc2)cc1OC	-10%	i
N#C/C(=C\c1ccc(-c2ccccc2[N+](=O)[O-])o1)C(=O)N1CCOCC1	-16%	-13%
O=C(COC(=O)c1cc[n+]([O-])cc1)Nc1ccc([N+](=O)[O-])cc1	3%	6%
CCCC(=O)N1CCCC1(C)C(=O)Nc1cc(OC)c(OC)c(OC)c1 (stereo not drawn)	-5%	1%
CSc1nc(C(=O)N2CCc3c([nH]c4ccccc34)C2c2ccccn2)cs1 (stereo not drawn)	-4%	-19%
CC(C)c1nc(CNC(=O)c2cc(COc3c(F)cccc3F)on2)cs1	-6%	i
C[C@H]1CN([C@@H](C)CO)C(=O)c2cc(-c3cccc(F)c3)cnc2O[C@H]1CN(C)C(=O)c1cnccn1	6%	-29%
O=C(NCCc1ccccc1)C(=O)NC1CCCCC1	-9%	-6%
CC1CC(C)CN(C(=O)COC(=O)c2ccc(Cl)nc2)C1 (stereo not drawn)	-10%	-7%
COC(=O)c1cc(Nc2cc(C)c3ccc(O)cc3n2)cc(C(=O)OC)c1	-18%	-12%
COc1ccc(Cl)cc1S(=O)(=O)N1CCC(C(=O)NCCc2ccccc2)CC1	-14%	-12%
O=C(Cn1cnc([N+](=O)[O-])n1)N/N=C/c1cc(Cl)ccc1O	?	?
COCCCn1c(=O)c2sccc2n2c(CCCC(=O)Nc3cc(C)cc(C)c3)nnc12	-5%	-9%
COc1ccccc1-c1nc2ccccc2c(=O)n1O	-5%	-6%
Cc1cc(Nc2cccc([N+](=O)[O-])c2)c2cccc(C)c2n1	?	?
CCOC(=O)C1CCN(C(=O)Cn2c(=O)oc3cc(S(=O)(=O)N4CCC(C)CC4)ccc32)CC1	-17%	-14%
CCOC(=O)c1c(NC(=S)NCc2ccccc2)sc2c1CCN(C(=O)OCC)C2	10%	i
CCOC(=O)c1c(C)c(-c2ccccc2)n(CC(=O)Nc2cc(OC)cc(OC)c2)c1C	-15%	-19%
CN1/C(=C/C(=S)NC(=O)C2(C)CC2(Cl)Cl)C(C)(C)c2ccccc21 (stereo not drawn)	-14%	-21%
COc1ccc(-n2ncc(C(C)NS(=O)(=O)c3ccc(C(C)=O)cc3)c2C)cc1 (stereo not drawn)	-19%	-4%
Cc1ccc2[nH]c(=O)c(CN(CCN3CCOCC3)C(=O)Nc3ccc(F)cc3)cc2c1	-10%	.
O=C(/C=C/c1ccccc1)NCC1(c2ccccc2)CCOCC1	-10%	-2%
CCOc1cc(/C=N/Nc2cccc(C(=O)O)c2)ccc1OC(=O)c1ccccc1	-7%	-12%
COc1ccc(CCNC(=O)c2ccc3c(c2)S(=O)(=O)N=C2CCCCCN23)cc1	-15%	i
Cc1ccc(Cc2nc3ccccc3nc2SCC(=O)NCCC(C)C)cc1	6%	14%
Cc1ccc(Cn2ccc(NC(=O)c3cc(-c4ccccc4)on3)n2)cc1	-20%	i
Cc1cnc(C)c(-c2ccc(O)c(CN3CCN(C=O)CC3)c2)n1	-5%	-10%
CCNC(=O)C1(C)CCCN(Cc2csc3ccccc23)C1 (stereo not drawn)	-1%	10%
CCOC(=O)c1c(-c2ccccc2)csc1NC(=O)/C(C#N)=C/c1ccc(O)c(OC)c1	70%[activator]	9%
Cc1nn(-c2ccccc2)c(Cl)c1C(=O)Nc1ccc(N2CCOCC2)cc1	2%	-14%
COC(=O)CC(CC(=O)OC)n1cccc1	-2%	-17%
CCC(C)N(C)C(=O)c1cc2ccccc2c(-c2ccccc2Cl)n1 (stereo not drawn)	-18%&-16%	-9%&0%
CC(/C=C/c1ccccc1)=N/O	-3%	-7%
CCN1CCCC1CNC(=O)c1cnn(-c2ncc(C)c(-c3ccc(F)cc3)n2)c1C(C)C (stereo not drawn)	-3%	-11%
COc1cc(OC)cc(C(=O)N[C@H](C(=O)NCc2cccs2)C(C)C)c1	-12%	-1%
COCCc1ccc(OCC(O)CNC(C)C)cc1 (stereo not drawn)	-7%&-13%&-9%&-6%	-17%&-17%&-13%
O=C(Nc1cc(Cl)ccc1Oc1ccccc1)c1ccc(F)cc1	-16%	-7%
OC(c1cccc(F)c1)c1ncc(-c2ccc3ccccc3c2)[nH]1 (stereo not drawn)	-16%	6%
COc1ccc(CCNc2oc(/C=C/c3cc(OC)c(OC)c(OC)c3)nc2C#N)cc1OC	-13%	-14%
Cc1ccc(Cl)c(OCC(=O)NCC(c2cccs2)N2CCOCC2)c1 (stereo not drawn)	-19%	-23%
O=C(NC1CCCCC1)c1ccc(CNc2c(N3CCOCC3)c(=O)c2=O)cc1	-13%	-12%
COc1cc(C(CCN2CCCC2)c2c(OC)cc(OC)c3c(C)cc(=O)oc23)cc(OC)c1OC (stereo not drawn)	-21%	15%
CC1CCCCC1NC(=O)COC(=O)c1ccc(S(=O)(=O)N2CCOCC2)cc1 (stereo not drawn)	-3%	-9%
CCn1c(C)nc([N+](=O)[O-])c1C(=O)O	-1%	-6%
CC(C)(C)c1ccc(Cn2cnc(-c3ccc([N+](=O)[O-])cc3)c2)cc1	-26%	-6%
COc1ccc2c(c1)C=C/C2=C/c1ccc(N(C)C)cc1	-15%	-20%
CC1CCCCC12NC(=O)N(CC(=O)Nc1ccc(N3CCOCC3)cc1)C2=O (stereo not drawn)	-9%	-10%
CC(=O)N1CCc2cc(S(=O)(=O)N3CCN(c4ccc(C)cc4)C(C)C3)ccc21 (stereo not drawn)	?	?
O=C(C[N+]12CN3CN(CN(C3)C1)C2)c1ccc(Br)cc1	-12%	-17%
CSCC(=O)N1CCCC(CO)(Cc2ccccc2C)C1 (stereo not drawn)	-2%	i
Cc1ccc(OC(=O)c2ccccc2P(=O)(O)O)cc1	-7%	-16%
O=C(OC(C(=O)NCc1ccccc1)c1ccccc1F)c1ccco1 (stereo not drawn)	-9%	?
CCc1ccc(S(=O)(=O)c2nnn3c2nc(NCc2cccc(OC)c2)c2cc(Cl)ccc23)cc1	-29%	-14%
Cc1ccc(S(=O)(=O)N(CC(=O)Nc2ccccc2C(=O)O)c2ccc(Cl)cc2)cc1	-6%	-19%
CCCS(=O)(=O)NC(=O)C1(C)CCN(C(=O)c2sccc2C)C1 (stereo not drawn)	0%	31%[activator]
COc1ccc(Cc2nc(C(=O)Nc3ccc(Cl)cc3)cs2)cc1	-17%	i
CCC(=O)NC(=S)Nc1cccc(NC(=O)c2ccccc2C)c1	-5%	-8%
CCCCNc1ccc(-c2nc(-c3ccccn3)no2)cc1[N+](=O)[O-]	-4%	-1%
CCOC(=O)CSc1nc2cc3c(cc2cc1C#N)OCCO3	-9%	i
CN(C(=O)Nc1ccc(Cl)cc1)n1cnc2ccccc2c1=O	-10%	-13%

Next compounds follow.
SMILES	Vaccinia Venus	VACV mCherry inh
CC(Oc1ccc2ccc(=O)oc2c1)C(=O)NCCCn1ccnc1 (stereo not drawn)	-3%	-12%
COc1ccc(C2c3[nH]c4ccc(OC)cc4c3CCN2C(=O)Nc2ccccc2)cc1 (stereo not drawn)	-21%	?
O=S(=O)(c1ccc2c(c1)oc1ccccc12)N1CCOCC1	-15%	-14%
O=C(NCc1ccco1)c1cnn2c(C(F)(F)F)cc(-c3ccco3)nc12	?	.
CCC12C(=Nc3c(Cl)cccc31)C[C@@H]1CCN3C(=O)CCC[C@H]2[C@H]13 (stereo partly drawn)	-18%&-9%	?
CCn1c(SCC(=O)NCCc2ccc(F)cc2)nnc1-c1cccs1	-3%	-15%
COc1cc(OC)c(NC(=O)CCNC(=O)Cn2cnc3ccccc3c2=O)cc1Cl	-18%	i
CC1CCN(C(=O)C2CCN(S(=O)(=O)c3ccc(-n4cnnn4)cc3)CC2)CC1	-2%	48%[activator]
O=C1CC(c2ccccc2)=C(c2ccccc2)C1	4%	-26%
CCNC1(C(N)=O)CCN(Cc2ccccc2)CC1	-3%	i
COc1ccc(N(C)S(=O)(=O)c2cccc(C(=O)Nc3nc4ccccc4[nH]3)c2)cc1	?	-25%
COc1cc(OC)c2c(c1)OCC1CON(C)C21 (stereo not drawn)	-1%	-11%
Nc1ccc2nc(-c3cccnc3)[nH]c2c1	-12%	-19%
CN(C)S(=O)(=O)c1cc(NC(=O)CSc2nn(-c3ccc(Cl)cc3)c(=S)s2)ccc1Cl	?	?
NC(=O)CSc1nnc(-c2ccncc2)n1-c1ccc(Cl)cc1	4%	7%
Nc1ccc(S(=O)(=O)Nc2nccc(/C=C/c3cccc([N+](=O)[O-])c3)n2)cc1	0%	i
CCN(CC)S(=O)(=O)c1ccc(OCC(=O)NC(=O)Cc2ccccc2)c([N+](=O)[O-])c1	-7%	-5%
COc1cc(NS(=O)(=O)c2ccc3c(c2)n(C)c(=O)n3C)cc(OC)c1	-27%	.
COc1ccc(C2(O)C(=O)Nc3ccccc32)cc1 (stereo not drawn)	1%	-6%
COCc1ccc(CN2Cc3ccccc3OC(c3ccccc3F)C2)o1 (stereo not drawn)	-28%	i
CN1CCN(c2ccc([N+](=O)[O-])cc2C(=O)c2ccc(Cl)cc2)CC1	?	.
O=[N+]([O-])c1cccc(/C=N/N2CCN(Cc3ccc(Cl)cc3)CC2)c1	-2%	?
Cc1cc(NC(=O)CSc2nc3[nH]c(=O)cc(O)c3s2)ccc1Br	-5%	-17%
CSc1ccc(S(=O)(=O)NCC(=O)OCC(=O)N2CCCCC2C)cc1[N+](=O)[O-] (stereo not drawn)	-8%	i

Overlap with the part before: five compounds, then new ones.
SMILES	Vaccinia Venus	VACV mCherry inh
COCc1ccc(CN2Cc3ccccc3OC(c3ccccc3F)C2)o1 (stereo not drawn)	-28%	i
CN1CCN(c2ccc([N+](=O)[O-])cc2C(=O)c2ccc(Cl)cc2)CC1	?	.
O=[N+]([O-])c1cccc(/C=N/N2CCN(Cc3ccc(Cl)cc3)CC2)c1	-2%	?
Cc1cc(NC(=O)CSc2nc3[nH]c(=O)cc(O)c3s2)ccc1Br	-5%	-17%
CSc1ccc(S(=O)(=O)NCC(=O)OCC(=O)N2CCCCC2C)cc1[N+](=O)[O-] (stereo not drawn)	-8%	i
Cc1ccc(-c2nc3nc(C)cc(N4CCN(c5cccc(C)c5C)CC4)n3n2)cc1	13%	-10%
Cc1ccc2c(c1)c1c(n2CC(O)CN2CCCCCC2)CCCC1 (stereo not drawn)	-26%	-21%
O=C(NCc1ccccc1)c1ccc(S(=O)(=O)C(F)F)cc1	?	-15%
O=C(CN(C(=O)CCC(=O)Nc1nccs1)c1ccccc1F)NCCc1ccccc1	5%	8%
CC(C)c1ccc(NC(=O)Nc2cc3sccc3n2C)cc1	-1%	?
O=C(Cn1cnc2ccccc2c1=O)Nc1cccc(-c2nnc3n2CCCCC3)c1	-14%	.
NNC(=O)/C=C/c1ccc(Cl)cc1Cl	-17%	-24%
Cc1ccc(NC(=S)Nc2ccc3[nH]c(=O)[nH]c3c2)cc1	6%	?
Cc1cccc(-c2nn(-c3ccccc3)cc2CNCCO)c1	-27%	-13%
O=[N+]([O-])c1cnccc1Nc1ccc(Cl)cc1	-17%	i
CCOC(=O)CSc1ccc(C(=O)NCCN2CCOCC2)cc1[N+](=O)[O-]	-6%	i
CCn1c(SCC(=O)Nc2oc(-c3ccccc3)c(-c3ccccc3)c2C#N)nnc1-c1ccco1	?	.
Cc1nnc(N2CCC(C(=O)N3CCCCC3)CC2)c2nn(-c3ccccc3)c(C)c12	-11%	-18%
CC(c1ccccc1)C1CC(=O)N(Cc2ccccc2)C1=O (stereo not drawn)	-4%	-1%
CN(c1ccccc1)S(=O)(=O)c1cccc(NC(=O)Nc2ccc(Cl)cc2C#N)c1	-9%	i

Screening data from PubChem.

Compounds were not picked by outcome; 0.88% or so of the library scored in one or more.
